Bioassay records: PubChem BioAssay, National Center for Advancing Translational Sciences (NCATS)
ClpP mod = qHTS Assay for Activators of ClpP. ATP-dependent Clp protease proteolytic subunit (Bacillus subtilis (strain 168)), P80244. actives 1.9% (n = 340,000). purified B. subtilis ClpP, FRET peptide cleavage, 20 min. Potency, µM (top dose mostly 57.5 µM), without a hit: top-dose activity change, negative = active; active = well fitted falling curve with a large enough effect; inconclusive = small, poorly fitted or top-dose-only effect; inactive = no such curve, though single readings can be large or run the other way; note: potency is the fitted concentration of half-maximal effect; the source files actives as falling curves though it sought activators and does not explain the sign; nearly all actives have a fitted effect of over 65% in size; many hits overshoot -100%
Target sequence (P80244 whole entry, looked up): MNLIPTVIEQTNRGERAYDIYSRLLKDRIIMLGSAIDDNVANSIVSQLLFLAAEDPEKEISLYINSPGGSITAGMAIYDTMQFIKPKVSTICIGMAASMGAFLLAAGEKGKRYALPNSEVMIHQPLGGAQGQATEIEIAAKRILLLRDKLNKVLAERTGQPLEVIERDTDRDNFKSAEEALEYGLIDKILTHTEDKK
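ClpP 10 microg/mL final, pH 8 Tris/KCl buffer with BSA, glycerol, Tween-20; compound pinned in; FRET-FV substrate; RT 20 min; Ex320/Em430; ΔFRET vs ADEP 5.8 microM, DMSO, no enzyme.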
TRPML1 blocker = blocks the human TRPML1 channel. Q9GZU1. TRPML1-inducible cells, Ca2+ dye fluorescence, FDSS; hits give low values; inhibition of EC80 agonist-evoked calcium signal. activity change, negative = inhibition, % (test concentration not listed). actives 0.02% (n = 390,000); in the data active means activity change below about -50%; inconclusive means about -30% to -50%; inactive means above about -30%;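 note: stimulus is agonist 54-4 at its EC80 concentration; % is set by controls: 0 for no effect and ±100 for the full control effect; compound concentration not given in the record; the text of the record puts the active cut at -80%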
Target sequence (Q9GZU1 whole entry, looked up): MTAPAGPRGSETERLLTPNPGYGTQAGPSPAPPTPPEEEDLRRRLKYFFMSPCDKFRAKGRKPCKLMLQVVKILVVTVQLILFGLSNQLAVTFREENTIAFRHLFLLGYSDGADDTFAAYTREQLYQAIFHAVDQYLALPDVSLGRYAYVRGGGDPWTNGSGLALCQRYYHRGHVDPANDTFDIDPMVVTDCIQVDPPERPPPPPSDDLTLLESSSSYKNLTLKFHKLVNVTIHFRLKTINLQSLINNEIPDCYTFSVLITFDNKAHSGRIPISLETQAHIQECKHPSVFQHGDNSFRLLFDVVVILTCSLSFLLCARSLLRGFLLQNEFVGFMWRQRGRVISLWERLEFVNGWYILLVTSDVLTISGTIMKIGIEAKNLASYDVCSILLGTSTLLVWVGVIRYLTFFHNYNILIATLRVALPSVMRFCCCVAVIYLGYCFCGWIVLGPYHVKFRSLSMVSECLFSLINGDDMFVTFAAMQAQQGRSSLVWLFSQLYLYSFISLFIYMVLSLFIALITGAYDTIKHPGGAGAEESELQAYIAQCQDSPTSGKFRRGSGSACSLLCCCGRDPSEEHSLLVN
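Tet-induced TRPML1-DL cells loaded with Ca8 no-wash calcium dye were read kinetically on FDSS. Compound addition was followed by EC80 agonist 54-4 (4 uM final); inhibition was read over 110 s.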
Active calls of the source: *; ? = inconclusive. These rows are one share of the data; the hit share may differ from the screen's.

Values run as follows: ClpP mod | TRPML1 blocker
(1) COc1ccc(-n2nc(C(=O)Nc3cccc(C)n3)c3c4ccccc4n(C)c3c2=O)cc1Cl
  -21% | -2
(2) CCCCNC(=O)C1(C)CCCCN1C(=O)c1ccc2c(c1)CCO2 (stereo not drawn)
  -0.7% | 25
(3) CC(Oc1ccccc1)C(=O)Nc1ccc(C(=O)OCc2cc(=O)n3ccsc3n2)cc1 (stereo not drawn)
  ? | 8
(4) CCOc1ccc(NC(=O)c2cc(=O)c3ccc(C)c(C)c3o2)cc1
  -0.3% | 6
(5) COc1cccc(C2=NS(=O)(=O)N(C)C(C(=O)Nc3ccccc3SC)=C2)c1
  -0.5% | 0
(6) COc1ccccc1-c1cc2nc(C)c(CCC(=O)NCCc3ccc(SC)cc3)c(C)n2n1
  4.0% | 8
(7) CCOc1ccc(CCNC(=O)C2CCCN(S(=O)(=O)N(C)c3ccc(F)cc3)C2)cc1 (stereo not drawn)
  0.8% | 25
(8) COc1cccc(CNC(=O)C2CCC(CNS(=O)(=O)c3cccs3)CC2)c1 (stereo not drawn)
  0.0% | 1
(9) COc1ccc(-c2onc(C)c2C)cc1S(=O)(=O)N1CCc2ccccc21
  -2.2% | 71
(10) COc1ccc(Cl)cc1NC(=O)c1nc(S(C)(=O)=O)ncc1N(Cc1ccc(C)cc1)Cc1ccco1
  -1.3% | -2
(11) Cc1ccc(-n2c(SCC(=O)N3CCC(C)CC3)nc3c([nH]c4ccccc43)c2=O)cc1
  -5.8% | 7
(12) Cc1oc(-c2ccccc2F)nc1Cn1c(SCc2cccc(Cl)c2)nc2ccncc21
  -6.2% | -4
(13) Cc1ccc([N+](=O)[O-])cc1S(=O)(=O)N1CCn2cccc2C1c1ccc(F)c(F)c1 (stereo not drawn)
  0.2% | -3
(14) Cn1c(=O)c2c(nc(N3CCOCC3)n2Cc2ccc(Br)cc2)n(C)c1=O
  -2.4% | 27
(15) Cc1ccc(NC(=O)CSc2nc(=O)n(CCN3CCOCC3)c3c2CCC3)c(C)c1
  -4.4% | 33
(16) Cc1ccc(C(=O)N2CC(=O)Nc3ccc(Br)cc3C2c2ccc(F)cc2)cc1C (stereo not drawn)
  -0.8% | -5
(17) O=C(Nc1ccc(NC(=O)c2cccs2)cc1)c1ccc(Cl)cc1
  0.5% | -9
(18) Cc1ccc(CNC(=O)C2CCN(c3nn4cc(-c5ccc(F)cc5)nc4s3)CC2)cc1
  0.5% | 9
(19) Cc1ccc(NC(=O)c2oc3ccc(S(=O)(=O)N(C)C4CCCCC4)cc3c2C)c(C)c1
  1.6% | -13
(20) Cc1ccc(Nc2c(-c3ccccc3O)nc3ccc(Br)cn23)cc1
  2.0% | -3
(21) Cc1ccc(Cc2nc3ccccc3nc2SCC(=O)N2CCc3ccccc32)cc1
  1.0% | 52
(22) c1ccc(N2CCN(c3ncnc4c3nc3n4CCCC3)CC2)cc1
  -23% | 30
(23) O=C(NCCCN1CCCCCC1)c1ccc2c(c1)sc1nc(-c3ccccc3)cn12
  -29% | -4
(24) COc1cccc(NC(=O)C(Cc2ccccc2)N2Cc3ccccc3C2=O)c1 (stereo not drawn)
  2.7% | -6
(25) COc1ccc(NC(=O)Cn2nnc(C(=O)Nc3ccc(C)c(F)c3)c2N)cc1Cl
  1.3% | -2
(26) CC(N)c1csc(Nc2ncccn2)n1 (stereo not drawn)
  -1.5% | -2
(27) COc1cc(NC(=O)c2cc3cc4ccc(C)cc4nc3o2)cc(OC)c1OC
  -3.2% | 0
(28) COc1ccc(NC(=O)Cn2cnc3sc(C)c(S(=O)(=O)N4CCN(C)CC4)c3c2=O)cc1Cl
  1.0% | -5
(29) CCCN(C(=O)CCc1nc(-c2ccccc2F)no1)c1ccc(CC)cc1
  1.5% | 61
(30) Cc1ccc(CN2CCC(CNC(=O)Nc3cccc(C)c3C)C2)cc1 (stereo not drawn)
  -0.4% | 27
(31) CN(C)CCNC(=O)C1CCN(c2nc3ccccc3[nH]2)CC1
  1.6% | -5
(32) Cc1ccc(-c2nc(CSc3nnc(C)n4c3cc3occc34)c(C)o2)cc1
  -0.3% | -14
(33) COCCCNC(=O)CSc1nc2c(sc3ccccc32)c(=O)n1CCc1ccc(OC)c(OC)c1
  -1.7% | -5
(34) CC1(C(=O)NCc2cccc(Cl)c2)Cc2c(-c3ccccc3)ccnc2O1 (stereo not drawn)
  -3.8% | -23
(35) Cc1ccc(NS(=O)(=O)c2c(C(=O)N3CCCCCC3)c(C)n(C)c2C)cc1F
  -0.7% | -2
(36) COc1ccccc1CCNC(=O)C(C)Sc1nc(-c2ccccc2)cc(C(F)(F)F)n1 (stereo not drawn)
  0.0% | -12
(37) COc1ccccc1CNC(=O)C(Cc1ccccc1)NS(=O)(=O)c1ccc2c(c1)CCN2C(C)=O (stereo not drawn)
  -1.2% | 4
(38) CCCCC(=O)Nc1nnc(S(=O)(=O)N(C)Cc2ccccc2)s1
  -2.3% | -22
(39) Cc1ccc2onc(CNC(=O)Nc3ccccc3C#N)c2c1
  -11% | 7
(40) COc1ccc(NC(=O)CN2CCN(c3ccccc3F)CC2)c(OC)c1
  0.2% | -19

Shown with tabs: three of the compounds above.
cpd	canonical_smiles	ClpP mod	TRPML1 blocker
27	COc1cc(NC(=O)c2cc3cc4ccc(C)cc4nc3o2)cc(OC)c1OC	-3.2%	0
28	COc1ccc(NC(=O)Cn2cnc3sc(C)c(S(=O)(=O)N4CCN(C)CC4)c3c2=O)cc1Cl	1.0%	-5
29	CCCN(C(=O)CCc1nc(-c2ccccc2F)no1)c1ccc(CC)cc1	1.5%	61

Further results
Values run as follows: ClpP mod | TRPML1 blocker
(41) COc1ccc(NC(=O)CSc2cn(CC(=O)N3CCOCC3)c3ccccc23)cc1OC
  -2.6% | 25
(42) CCOC(=O)c1c(Nc2ccc(C)c(C)c2)nnc(-c2ccccc2)c1-c1ccccc1
  0.7% | 19
(43) COc1ccccc1CNc1nc(Nc2ccc(C)cc2C)c2sccc2n1
  -27% | -2
(44) COc1cccc(CNC(=O)Cn2cc3c(n2)-c2c(oc(C(=O)N4CCCC4)c2C)CC3)c1
  1.9% | 31
(45) C[C@H](NC(=O)/C=C/[C@H]1O[C@@H](n2ccc(=O)[nH]c2=O)[C@H](O)[C@@H]1O)C(=O)O
  -3.3% | 12
(46) Cc1ccc(OCC(=O)OCc2cc(=O)n3nc(C4CC4)sc3n2)cc1
  -5.0% | 4
(47) CCc1nn(Cc2ccc(Cl)cc2)c(=O)c2cc3cc(C)ccc3n12
  -4.7% | -8
(48) Cc1ccc(-c2nnc(Nc3cccc(Br)c3)c3ccccc23)cc1S(=O)(=O)N1CCCCC1
  -29% | 25
(49) N#CC1=C2SCN(C3CCCCC3)CN2C(=O)CC1c1ccc(F)cc1 (stereo not drawn)
  -0.8% | 23
(50) O=C(CCOc1ccccc1)N(Cc1cccnc1)c1nc2c(Cl)cccc2s1
  -4.9% | 17
(51) Cc1ccc(NC(=O)Cn2cc3c(n2)CCCC3)c(C)c1
  -0.8% | 13
(52) Cc1ccc(NC(=O)c2cnc(N3CCCC3)nc2C)cc1F
  -16% | ?
(53) COc1cccc(CNc2nc3cc(-c4cscc4C)sc3c(=O)n2C)c1
  ? | 0
(54) CCOc1ccccc1NC(=O)N1CCC(n2c(C)nc3cccnc32)CC1
  -1.7% | -25
(55) CCN(CC)S(=O)(=O)c1nnc(NC(=O)COc2ccccc2)s1
  2.0% | -24
(56) O=C(Cn1c(=O)n(Cc2ccc3c(c2)OCO3)c(=O)c2oc3ccccc3c21)Nc1ccccc1
  ? | 15
(57) Cc1ccc(-n2ncc(C(=O)NCc3ccc4c(c3)OCO4)c2C2CCN(C(=O)OC(C)(C)C)CC2)cc1C
  -4.1% | -20
(58) CCOc1ccccc1NC(=O)C(=O)NCCc1sc2nc(-c3ccc(OC)cc3)nn2c1C
  0.6% | 10
(59) CCN(c1cccc(C)c1)S(=O)(=O)c1nnc(NC(=O)c2cccs2)s1
  -10% | 1
(60) COc1ccc(OC)c(CNC(=O)C2CCCCN2S(=O)(=O)c2ccc(F)cc2)c1 (stereo not drawn)
  -1.0% | 34

Quoted from the listing:
no. 18 – ClpP mod: 0.5%
no. 20 – TRPML1 blocker: -3
no. 5 – TRPML1 blocker: 0
no. 34 – TRPML1 blocker: -23
no. 27 – ClpP mod: -3.2%

Part of the list above, as labelled records.
[55] CCN(CC)S(=O)(=O)c1nnc(NC(=O)COc2ccccc2)s1
  ClpP mod: 2.0%	TRPML1 blocker: -24

[17] O=C(Nc1ccc(NC(=O)c2cccs2)cc1)c1ccc(Cl)cc1
  ClpP mod: 0.5%	TRPML1 blocker: -9

[51] Cc1ccc(NC(=O)Cn2cc3c(n2)CCCC3)c(C)c1
  ClpP mod: -0.8%	TRPML1 blocker: 13

Next section:
Values run as follows: ClpP mod | TRPML1 blocker
(61) CCOCCCNC(=O)Cn1nc(C)n2c(cc3cc(C)ccc32)c1=O
  -9.1% | 8
(62) CCOc1ccccc1CNC(=O)C1=C(C)C(=O)OC12CCN(C(C)=O)CC2
  0.0% | 10
(63) COc1cc2c(=O)c(S(=O)(=O)c3ccc(C(C)C)cc3)cn(Cc3ccccc3C)c2cc1OC
  3.3% | 10
(64) CCCn1ccc2c(OCC(=O)Nc3ccc(C(F)(F)F)cc3)cccc2c1=O
  ? | 2
(65) COC(=O)c1c(NC(=O)/C(C#N)=C/c2ccc(OC)cc2)sc2c1C(C(=O)OC)CC2 (stereo not drawn)
  -0.1% | -9
(66) Cc1ccc(-c2ccc(=O)n(CC(=O)Nc3ccc(C)cc3Cl)n2)cc1
  -7.8% | 2
(67) CCOC(=O)c1c(NC(=O)c2cc(-c3ccccc3OC)on2)sc(C)c1C
  -5.7% | 10
(68) CC(C)COc1ccc(C(=O)Nc2scc(-c3ccc(Br)cc3)c2C(=O)OC(C)C)cc1
  ? | -2
(69) Cn1c(C(=O)NCc2ccc(Cl)cc2)cc2c(=O)n(C)c3ccccc3c21
  -13% | 25
(70) CCOC(=O)Cn1c(=O)oc2cc(S(=O)(=O)N3CCN(c4ccccc4OC)CC3)ccc21
  -0.8% | 27
(71) COc1ccc(-c2noc(N3CCC(C(=O)Nc4ccc(C)c(F)c4)CC3)n2)cc1OC
  6.9% | 12
(72) CC(NC(=O)C1CCN(C(=O)N2CCOc3ccccc32)CC1)c1ccccc1 (stereo not drawn)
  -0.6% | 21
(73) CC1CCN(S(=O)(=O)c2nnc(NC(=O)c3cccc(F)c3)s2)CC1
  -15% | 10
(74) COc1ccc(-c2ccc(C(=O)NCc3ccc(N4CCN(C)CC4)cc3)c3occc23)c(C)c1
  -13% | 9
(75) N#Cc1nc(-c2ccc(COc3ccc(Cl)cc3)o2)oc1N1CCC(C(N)=O)CC1
  32µM* | 32
(76) COc1cccc(NC(=O)c2nnn(Cc3cccc(C(F)(F)F)c3)c2N)c1
  4.0% | 5
(77) Cc1ccc(Cl)cc1N1CCN(S(=O)(=O)c2ccc(-c3cnc(C4CC4)o3)cc2)CC1
  3.8% | -1
(78) CCCCC1Cc2[nH]c(=S)[nH]c(=O)c2C(c2ccc(Cl)cc2)O1 (stereo not drawn)
  0.8% | -2
(79) CCOCCCNC(=O)C(c1ccc(OC)cc1)N(Cc1ccc2c(c1)OCO2)C(=O)c1ccc(NC(C)=O)cc1 (stereo not drawn)
  -0.5% | -24
(80) O=C(/C=C/[C@H]1O[C@@H](n2ccc(=O)[nH]c2=O)[C@H](O)[C@@H]1O)NCCN1CCCCC1
  0.6% | -4
(81) CCOC(=O)c1c(NC(=O)c2cc3nc(-c4ccccc4)cc(C(F)(F)F)n3n2)sc2c1CCC(C)C2 (stereo not drawn)
  -10% | 14
(82) CC(=O)Nc1cc(-c2nc3ccccc3s2)ccc1C
  3.2% | -14
(83) Cc1oc(-c2ccccc2F)nc1CSCC(=O)NCCc1ccccc1
  -17% | 10
(84) COc1ccc(S(=O)(=O)c2cn(CC(=O)Nc3cc(C)ccc3C)c3ccccc3c2=O)cc1
  0.0% | -14
(85) COc1cccc(Cc2nc3ccccc3nc2SCC(=O)Nc2cc(OC)ccc2OC)c1
  2.2% | 37
(86) COc1ccc(F)cc1S(=O)(=O)NCCc1c(C)[nH]c2c(Cl)cccc12
  0.4% | -2
(87) COc1cccc(Cn2c(Oc3cc(C)cc(C)c3)nc3c2c(=O)n(C)c(=O)n3C)c1
  -0.5% | 1
(88) CCn1cc(/C=C(\NC(=O)c2ccccc2Cl)C(=O)NCCCn2ccnc2)c2ccccc21
  -6.6% | -3
(89) Fc1ccc(-n2cc(-c3ccccc3)c3c(NC4CCCCC4)ncnc32)cc1
  -6.6% | -11
(90) COc1ccc(Nc2sc(C(=O)c3ccccc3)c(N)c2C(=O)Nc2cc(C)ccc2C)c(OC)c1
  -0.3% | -13
(91) COc1ccc(N(CC(=O)N2CCCCC2)S(=O)(=O)c2ccc(OC)c(OC)c2)cc1
  -2.5% | 6
(92) CCOC(=O)c1cc(C)n(CC2CCC(C(=O)Nc3ccc(C)c(F)c3)CC2)c1C (stereo not drawn)
  -3.7% | 14
(93) CCN(CCCNC(=O)CSc1cc(=O)n(CC)c2ccccc12)c1ccccc1
  -2.3% | 18
(94) COc1ccc(S(=O)(=O)N(CC(=O)Nc2ccc(OC)cc2OC)c2ccc(Cl)cc2)cc1
  0.7% | -7
(95) CCn1cc(C(=O)N2CCN(c3cccc(Cl)c3)CC2)c(=O)c2cc(S(=O)(=O)N3CCC(C)CC3)ccc21
  0.6% | 8
